Assay outcomes deposited in PubChem by several laboratories.
MT1-MMP act inh: MT1-MMP (human) activation inhibition | GFP/RFP ratio change, % at 20 µM | 0.061% of 360,000 active | HT1080 RFP-PRO-GFP cells, GFP/RFP ratio fluorescence, overnight; percent of plate control window, DMSO zero;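 active = GFP/RFP ratio change of at least 30% with cell ATP level not reduced by more than half and red fluorescence within 50% of control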; also: strong numbers were not always called active
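Assay system: RFP-PRO-GFP reporter HT1080 cells; read-out basis: GFP/RFP fluorescence ratio; benchmarks: DMSO wells and RFP-L50D-GFP cells; doses: 20 µM single dose, 1% DMSO; schedule: overnight cell settling, then overnight compound exposure, 37 °C, 5% CO2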
CSC inhib: blocks cancer stem cells. cancer stem cell-like cells viability, luminescence. inhibition, % at 7.5 µM. 1.1% of 300,000 active. AID 2717;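 active = mean at 75% or more and at least half the replicates too; tested in HMLE shEcad cells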;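 also: 0% = median of negative and 100% = median of positive control wells; the first replicate is given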
eIF4H inh: inhibitors of RNA binding by human eIF4H | 0.94% of 290,000 active | inhibition, % at 35 µM | AID 2012 | eIF4H fluorescence polarization binding assay;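 active = 50% or more with normal probe brightness, or confirmed in later tests; about a fifth of its hits are not listed in these tables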;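 also: calls also rest on retests at 20 µM and on dose response follow-up; 0% = protein and probe with vehicle and 100% = probe without protein; strong numbers were not always called active; many hits fall short of the cut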
PABP FP inh: PABP-poly(A) binding inhibition; PABP-poly(A) RNA binding, fluorescence polarization; inhibition, % at 35 µM; 1% of 290,000 active;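 active = 50% or more with normal probe brightness, or confirmed in later tests; about a fifth of its hits are not listed in these tables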;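 also: calls also rest on retests at 20 µM and on dose response follow-up; controls were probe without protein and protein plus probe with vehicle; some compounds called inactive have numbers as strong as hits; many hits fall short of the cut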
Rce1 inhib: yeast Ras-converting enzyme inhibition; yeast membranes, quenched prenylated peptide cleavage fluorescence; calls only; 0.27% of 290,000 active;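 active = fall in fluorescence gain of 50% or more versus controls, with final raw signal at or below 3038400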;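 also: plate controls were neutral control wells for no effect and wells lacking membranes for full effect; tested at 10 µM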
Target sequence (Q03530 whole entry, looked up): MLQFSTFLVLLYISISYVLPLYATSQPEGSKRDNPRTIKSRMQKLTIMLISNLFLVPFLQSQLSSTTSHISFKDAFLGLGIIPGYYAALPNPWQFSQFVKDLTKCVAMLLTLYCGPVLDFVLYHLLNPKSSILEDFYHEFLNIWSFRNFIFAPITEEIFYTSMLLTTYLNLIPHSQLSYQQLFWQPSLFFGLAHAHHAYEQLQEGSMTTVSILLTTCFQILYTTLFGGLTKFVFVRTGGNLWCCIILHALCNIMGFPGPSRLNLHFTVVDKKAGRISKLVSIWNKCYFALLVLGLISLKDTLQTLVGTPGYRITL
Env fusion inh: HIV envelope-mediated fusion inhibition. HeLa-JRFL Env/CEM21 cell fusion, luciferase. inhibition, % at 12.3 µM. 1.1% of 360,000 active. AID 651610;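 active = mean replicate inhibition score of at least 50 and every replicate individually at or above 50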;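 also: 0% = plate neutral controls and 100% = maraviroc near 300 nM; one replicate is shown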
UUG fidelity: modulators of start codon recognition fidelity in yeast; S. cerevisiae UUG-firefly luciferase reporter, luminescence/redox ratio; activity score, % at 18.7 µM; 0.13% of 350,000 active; AID 602363;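 active = replicate mean at a twofold rise or more, about +100% in these data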;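 also: firefly luciferase made from a UUG start codon reports start codon fidelity; reporter light over untreated wells divided by growth signal over untreated wells; some hits fall short of that in this replicate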
eIF4H inh retest: also measured in eIF4H inh; calls as there; inhibition, %; compound at 20 µM; confirmation average;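 mean of two retest wells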
PABP FP inh retest: recorded beside PABP FP inh, whose call it bears; inhibition, %; compound at 20 µM; confirmation repeats;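 mean of two retest wells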
MT1-MMP act inh RFP: recorded beside MT1-MMP act inh, whose call it bears; RFP signal change, %; measured here: RFP expression control read;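 0 = vehicle wells; hits needed this value within 50% of zero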
* hit, by the source's call; i = inactive; . = not tested or not shown.

SMILES | MT1-MMP act inh | MT1-MMP act inh RFP | CSC inhib | eIF4H inh | PABP FP inh | Rce1 inhib | Env fusion inh | UUG fidelity | others
CCN(CC)C(=O)COC(=O)c1cc(-c2ccco2)nc2ccccc12 | -16 | 0 | . | 82* | 64* | i | 2 | .
C=CCn1c(SCC(=O)Nc2sccc2C(N)=O)nc2ccc(Cl)cc2c1=O | -9 | -23 | 3 | -4 | 10 | i | . | -14
Cc1ccc(C(=O)N2CCC3(CC2)Oc2ccc(Cl)cc2C(=O)C32CC(c3cccnc3)=NO2)s1 (stereo unspecified) | 0 | 1 | 4 | 11 | -8 | i | -3 | -16
CCCCOc1ccc(S(=O)(=O)NNC(=O)c2cc3ccccc3o2)cc1 | 0 | -6 | 1 | -1 | -3 | i | . | 4
COc1ccc(CNC(=O)c2ccc(N3CCOCC3)c([N+](=O)[O-])c2)cc1 | 11 | 1 | -2 | 3 | -5 | i | -4 | .
c1csc(-c2cn3c(n2)SCC3)c1 | 3 | 4 | -18 | 0 | -1 | i | . | -14
Cc1cc(C)cc(N(CC(=O)NC2CCCC2)C(=O)CCC(=O)Nc2nc(C)cs2)c1 | 2 | -7 | 1 | 2 | -11 | i | -3 | -15
COc1ccccc1NS(=O)(=O)c1cccc(C(=O)NCc2ccccn2)c1 | -3 | 0 | -7 | -7 | -4 | i | 16 | -26
COc1ccc(NC(=O)CCNC(=O)C2CCN(S(=O)(=O)c3ccccc3)CC2)cc1OC | 0 | 0 | . | . | . | . | -3 | -30
O=C(CCCC(=O)N(c1ccc2c(c1)OCCO2)C(C(=O)NC1CCCCC1)c1ccc(Cl)cc1)Nc1ccccn1 (stereo unspecified) | -18 | -12 | 6 | -3 | -1 | i | . | -12
COc1ccc(Br)cc1CNc1ccccc1 | 14 | 14 | 4 | 4 | -10 | i | -31 | -8
Cc1ccc(S(=O)(=O)NC2CCCCC2)cc1C(=O)N1CCC(C(N)=O)CC1 | -3 | 2 | 9 | . | . | . | 7 | 1
CCCCCCOC(=O)c1ccc(NC(=O)c2cc(OC)c(OC)c(OC)c2Br)cc1 | -3 | -11 | 40 | 3 | 5 | i | . | .
CCc1nc2ccc(C(=O)N(CC)CCN(C)C)cn2c1N(C)Cc1cccs1 | -7 | 4 | . | . | . | . | -29 | -4
Cc1nc2ccccc2c(=O)n1NC(=O)c1cccnc1Cl | 6 | 5 | . | 44 | 0 | i | 10 | .
O=C(Nc1nnc(SCc2ccc(F)cc2)s1)c1ccco1 | 3 | 2 | 11 | -3 | 7 | i | . | -27
CSc1nc(N)n2nc(C(C)(C)C)cc2n1 | 1 | 1 | -9 | 3 | -10 | i | 10 | .
Oc1ccc(Cl)cc1CNC1CCCCC1 | -2 | -1 | . | . | . | . | -6 | -17
COc1cc(OC)c(C2NC(=O)CCC2[N+](=O)[O-])cc1OC (stereo unspecified) | 0 | -2 | 3 | 2 | -7 | i | 19 | -4
COc1cc(F)ccc1-c1cc(C(=O)NCc2cccc(Cl)c2)[nH]n1 | 0 | 1 | . | . | . | . | -21 | -6
Cn1nnnc1Sc1ncnc2scc(-c3ccc[nH]3)c12 | -24 | -22 | 41 | . | . | . | -12 | -3
Cc1ccc2nc(SCC(=O)Nc3nnc(SCC(N)=O)s3)[nH]c2c1 | 7 | 6 | . | -1 | 2 | i | -33 | -20
O=C(CSc1ccc2nnc(-c3cccc(F)c3)n2n1)N1CCCc2ccccc21 | -3 | -6 | 11 | -5 | -7 | i | 7 | .
COc1ccc2cc(C(c3nnnn3C3CCCCC3)N3CCCCCC3)c3nnnn3c2c1 (stereo unspecified) | 4 | 9 | -1 | . | . | i | . | -12
Nc1ccc(C(=O)n2c3ccccc3c3ccccc32)cc1 | 3 | -10 | 17 | -4 | -2 | i | . | -7

Among those listed so far, these have a furan ring, fused or not.
SMILES | MT1-MMP act inh | MT1-MMP act inh RFP | CSC inhib | eIF4H inh | PABP FP inh | Rce1 inhib | Env fusion inh | UUG fidelity | others
CCN(CC)C(=O)COC(=O)c1cc(-c2ccco2)nc2ccccc12 | -16 | 0 | . | 82* | 64* | i | 2 | .
CCCCOc1ccc(S(=O)(=O)NNC(=O)c2cc3ccccc3o2)cc1 | 0 | -6 | 1 | -1 | -3 | i | . | 4
O=C(Nc1nnc(SCc2ccc(F)cc2)s1)c1ccco1 | 3 | 2 | 11 | -3 | 7 | i | . | -27

(further entries)
SMILES | MT1-MMP act inh | MT1-MMP act inh RFP | CSC inhib | eIF4H inh | PABP FP inh | Rce1 inhib | Env fusion inh | UUG fidelity | others
CS(=O)(=O)c1ccc(C(=O)OCC(=O)N2CCCc3ccccc32)cc1 | -2 | 4 | -4 | . | . | i | -16 | -6
O=C(COc1ccc(-n2cnnn2)cc1)Nc1ccc(Br)cc1F | -1 | 1 | -7 | . | . | . | 5 | -5
C/C(=N/NC(=O)CNS(=O)(=O)c1ccccc1)c1ccc(Br)cc1 | 3 | 1 | -4 | -8 | -4 | i | 8 | 5
COCC(C)NC(=O)CSc1nc2ccccc2n1CCc1ccccc1 (stereo unspecified) | 4 | 5 | 5 | -7 | -3 | i | 9 | -7
COc1ccccc1CNC(=O)c1ccc(NS(C)(=O)=O)cc1 | 1 | 3 | -18 | 6 | -5 | i | 2 | -8
O=S(=O)(/N=C(/Nc1ccc(F)cc1F)c1ccccc1)c1ccccc1 | 5 | 6 | -15 | -14 | 23 | i | 9 | -20
CC1C(=O)N(Cc2cn(Cc3ccco3)nn2)CCS(=O)(=O)N1Cc1ccc(-c2ccc(F)nc2)cc1 (stereo unspecified) | -1 | -3 | . | . | . | . | -5 | -7
COc1ccccc1NC(=O)c1nnn(CC(=O)Nc2cccc(SC)c2)c1N | 5 | 1 | 8 | -12 | -7 | . | -75 | 3
Cc1cc(S(=O)(=O)N2CCN(c3ncccn3)CC2)ccc1-n1cnnn1 | -7 | -1 | 16 | 2 | 2 | i | . | -7
CCCCN(CC)CCCNC(=O)c1cc2c(=O)[nH]c3ccccc3c2s1 | 6 | 0 | 6 | -1 | 10 | i | -14 | -1
CCCCNC(=O)C1(C)CCCCN1C(=O)c1ccc(F)cc1Cl (stereo unspecified) | -1 | 4 | . | . | . | . | -3 | 0
COc1ccc(N2C(=O)CCC(C(=O)N3CCN(c4ccccn4)CC3)C2c2ccc(F)cc2)cc1 (stereo unspecified) | -1 | 0 | -6 | 2 | 2 | i | 4 | -9
CCOC(=O)c1cc(C(=O)NN)c(=O)[nH]c1C | 3 | 1 | -3 | -7 | 9 | i | -6 | -26
CCCCC1=CC2=C(c3ccco3)C(=O)C(C)(OC(=O)c3ccc(OC)cc3)C(=O)C2=CN1CC(C)C (stereo unspecified) | -13 | 4 | -4 | 18 | 23 | i | -7 | -1
COc1cc(C2Nc3cccc4cccc(c34)N2)ccc1O | 6 | -1 | -6 | 79* | 39* | i | 8 | -13 | eIF4H inh retest=113*;PABP FP inh retest=56*
CCOC(=O)c1c(/N=C/c2cccc([N+](=O)[O-])c2O)sc2c1CCC2 | 1 | 5 | -2 | 25 | 28 | i | 3 | -1
COc1ccccc1N1CCN(C(=O)c2ccc(CS(=O)(=O)c3ccccc3OC)o2)CC1 | 2 | -2 | . | -4 | 12 | i | -46 | 3
COc1ccc(-n2cccc2/C=C2\C(=N)N3N=C(c4ccco4)SC3=NC2=O)cc1 | -4 | -7 | 2 | 44 | -13 | i | -1 | .
COc1cc(/C=N/NC(=O)c2nnn(-c3nonc3N)c2C(C)C)ccc1O | 5 | -1 | 2 | -3 | -7 | i | -5 | -14
O=C(Nc1ccc(S(=O)(=O)Nc2ncccn2)cc1)c1ccc(S(=O)(=O)N2CCCC2)cc1 | -1 | -1 | -11 | 2 | -4 | i | 15 | .
CCOc1ccc(C(=O)NC(C(=O)NCCc2ccc(S(N)(=O)=O)cc2)C(C)C)cc1 (stereo unspecified) | -6 | -3 | 0 | 5 | -4 | i | 0 | -7
COc1ccc2c(=O)c(N3C(=O)c4ccccc4C3=O)coc2c1 | -3 | 2 | -3 | -5 | 6 | i | -12 | -8
COc1ccccc1NC(=O)c1cc(Cl)nnc1Cl | -1 | 3 | 0 | -6 | 8 | i | -9 | -21
N#CCCN(C(=O)c1cc2c(s1)-c1ccccc1S(=O)(=O)C2)c1ccccc1 | -3 | -3 | 13 | 8 | 7 | i | -1 | .
Cc1nn(-c2cc(C(F)(F)F)ccc2Cl)c2nc(C(Cl)(Cl)Cl)[nH]c(=O)c12 | 1 | -4 | 56 | -3 | 40 | i | -7 | .
Next part
SMILES | MT1-MMP act inh | MT1-MMP act inh RFP | CSC inhib | eIF4H inh | PABP FP inh | Rce1 inhib | Env fusion inh | UUG fidelity | others
Cc1ccc(NC(=O)C2CCCC2)c(Br)c1 | 3 | 0 | -6 | . | . | i | 8 | -27
CCCn1c(SCC(=O)NC(C)c2ccccc2)n[nH]c1=O (stereo unspecified) | 2 | 2 | -4 | 3 | 1 | i | -10 | -18
C=CCN(CC=C)S(=O)(=O)c1ccc(NC(=S)NC(=O)/C=C/c2ccc(C)cc2)cc1 | -1 | -13 | -6 | -4 | 1 | i | . | -21
CCOc1cc(N2CCOCC2)c(OCC)cc1NC(=O)Cc1ccccc1OC | 6 | -1 | 5 | 8 | -5 | i | . | .
CSCc1cc(N(C)c2ccccc2)nc(-c2ccccc2)n1 | -1 | -3 | 18 | -1 | 3 | i | 17 | -17
CC1CCCCN1CCCNC(=O)c1ccc2c(c1)NC(=O)CN2C (stereo unspecified) | 2 | 3 | . | . | . | . | 25 | -23
O=C(O)c1cccc(S(=O)(=O)N2CCCC(c3nc4c(nnn4Cc4ccccc4Cl)c(=O)[nH]3)C2)c1 (stereo unspecified) | -2 | 1 | -11 | -12 | 7 | . | 0 | -7
CCC(C)N1CCN(C(=O)C2CCN(S(=O)(=O)c3c(C)noc3/C=C/c3ccco3)CC2)CC1 (stereo unspecified) | 5 | 1 | 18 | -2 | 7 | i | -8 | -9
CCOCCCNC(=O)CN1CCN(Cc2ccc(Cl)cc2)C1=O | 1 | 0 | -20 | -2 | -5 | i | -3 | -6
CCC(=O)NC(=S)Nc1ccc(NC(=O)c2ccc([N+](=O)[O-])cc2Cl)cc1 | -2 | -1 | -3 | -9 | 5 | i | 4 | -8
COc1ccc(C2C(=O)c3ccccc3C2=O)cc1OC | -3 | -1 | 1 | 0 | -15 | i | 2 | .

Structural class, the entries above containing an aryl thioether with sulfur outside any ring (nine)
SMILES | MT1-MMP act inh | MT1-MMP act inh RFP | CSC inhib | eIF4H inh | PABP FP inh | Rce1 inhib | Env fusion inh | UUG fidelity | others
C=CCn1c(SCC(=O)Nc2sccc2C(N)=O)nc2ccc(Cl)cc2c1=O | -9 | -23 | 3 | -4 | 10 | i | . | -14
O=C(Nc1nnc(SCc2ccc(F)cc2)s1)c1ccco1 | 3 | 2 | 11 | -3 | 7 | i | . | -27
CSc1nc(N)n2nc(C(C)(C)C)cc2n1 | 1 | 1 | -9 | 3 | -10 | i | 10 | .
Cn1nnnc1Sc1ncnc2scc(-c3ccc[nH]3)c12 | -24 | -22 | 41 | . | . | . | -12 | -3
Cc1ccc2nc(SCC(=O)Nc3nnc(SCC(N)=O)s3)[nH]c2c1 | 7 | 6 | . | -1 | 2 | i | -33 | -20
O=C(CSc1ccc2nnc(-c3cccc(F)c3)n2n1)N1CCCc2ccccc21 | -3 | -6 | 11 | -5 | -7 | i | 7 | .
COCC(C)NC(=O)CSc1nc2ccccc2n1CCc1ccccc1 (stereo unspecified) | 4 | 5 | 5 | -7 | -3 | i | 9 | -7
COc1ccccc1NC(=O)c1nnn(CC(=O)Nc2cccc(SC)c2)c1N | 5 | 1 | 8 | -12 | -7 | . | -75 | 3
CCCn1c(SCC(=O)NC(C)c2ccccc2)n[nH]c1=O (stereo unspecified) | 2 | 2 | -4 | 3 | 1 | i | -10 | -18
